HPGD inh: blocks human HPGD enzyme activity; P15428; purified HPGD, NADH fluorescence kinetic, PGE2 substrate; Potency, µM, for inactives: at the top dose activity change, negative = inhibition, hits mostly inhibitors; 4.3% of 150,000 active; AID 894; active = well fitted inhibition curve with a large enough effect (not every such curve was filed as active); inconclusive = small, poorly fitted or top-dose-only effect, or another doubt; inactive = no such curve, though single readings can be large or run the other way;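 further: top concentration of the series not given in the record; plate controls included wells without enzyme; inactives centre near -10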
Target sequence (P15428 whole entry, looked up): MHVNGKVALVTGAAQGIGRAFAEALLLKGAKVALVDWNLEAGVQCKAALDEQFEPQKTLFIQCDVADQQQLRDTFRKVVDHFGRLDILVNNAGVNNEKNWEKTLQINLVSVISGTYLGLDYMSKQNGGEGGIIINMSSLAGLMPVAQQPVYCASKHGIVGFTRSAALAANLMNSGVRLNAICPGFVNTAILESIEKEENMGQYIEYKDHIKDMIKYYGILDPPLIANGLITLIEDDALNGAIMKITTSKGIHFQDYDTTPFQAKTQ
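NADH formation kinetics: reaction with 30 uM PGE2 and 1 mM NAD+ (final), 20 nM enzyme, Tris-HCl pH 8 with Tween 20, after 15 min compound preincubation at room temperature. Fluorescence change, last versus first of five reads.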
* = called active by the depositor; ? = inconclusive; & = joins results of further samples. On the % scale 0 is the no-effect control and ±100 the full control effect; potency means the concentration at half of the fitted maximal effect. Only part of the results is shown; count on the stated rates, not on these rows.

The opening two entries as a preview:
HPGD inh | smiles
-1% | CCOc1ccc2nc(/N=C/c3nc(-c4ccccc4)oc3O)sc2c1
10µM* | CN(c1ccc(C(=O)N2CCCCC2)cc1)S(C)(=O)=O

Main list, previewed entries included:
HPGD inh | smiles
-1% | CCOc1ccc2nc(/N=C/c3nc(-c4ccccc4)oc3O)sc2c1
10µM* | CN(c1ccc(C(=O)N2CCCCC2)cc1)S(C)(=O)=O
4.5µM* | Cc1cc([N+](=O)[O-])nn1CCCC(=O)Nc1sc2c(c1C(N)=O)CCCC2
-11% | O=C(NC(=S)NC1CCSC1=O)c1ccccc1Cl (stereo not drawn)
-9% | CC(C)CC(=O)NC(=S)Nc1ccc(S(=O)(=O)N2CCN(C)CC2)cc1
-6% | CCN(CC)C(=O)CSc1nnc(-c2ccccc2)n1-c1ccccc1
-14% | Cc1ccc(C(=O)O/N=C/c2ccc3c(c2)OCO3)cc1
-8% | COc1ccc([N+](=O)[O-])cc1/C=N/NC(=O)/C(=C\c1cccs1)NC(=O)c1ccccc1
? | Cc1cc(-c2n[nH]c(=S)n2-c2ccccc2C)cs1
-14% | CNC(=O)c1c(C)nc(SCC(=O)NCc2ccc(OC)cc2)c(C#N)c1-c1ccco1
-24% | O=C(c1cnccn1)N1CCC2(CCCN(c3ncccn3)C2)CC1
? | O=S(=O)(c1ccc2c(c1)C(=NO)c1cc(S(=O)(=O)N3CCCCC3)ccc1-2)N1CCCCC1
-5% | COc1ccc(NC(=S)NCCCN2CCN(C3CCCCC3)CC2)cc1
-19% | O=C(CN1C(=O)NC(Cc2c[nH]c3ccccc23)C1=O)Nc1cccc(S(=O)(=O)N2CCCCCC2)c1 (stereo not drawn)
-6% | COCCNCC(=O)NCC12CC3CC(CC(C3)C1)C2
-1% | O=C(NCc1ccc2c(c1)OCO2)C1CCCN(S(=O)(=O)c2cccc3cccnc23)C1 (stereo not drawn)
-7% | FCCCOc1ccc(/C=N/OCc2ccc(Cl)cc2)cc1
? | CCOC(=O)c1c(-c2ccc(F)cc2)cn2ccccc12
? | CCOc1ccc(-n2c(-c3ccco3)n[nH]c2=S)cc1
-13% | C=CCNC(=O)c1ccccc1NS(=O)(=O)c1ccccc1
-6% | O=C(NC1=NCCS1)c1cccc(S(=O)(=O)N2CCCCC2)c1
-7% | O=C(Nc1ncc(S(=O)(=O)c2ccc([N+](=O)[O-])cc2)s1)c1ccc2ccccc2c1
-4% | C=CCSc1nc(Oc2ccccc2)c2sccc2n1
-2% | Cc1cccc(N(CC(=O)Nc2ccc(F)cc2)S(C)(=O)=O)c1
1% | COc1ccc(OC)c(S(=O)(=O)Nc2cccc(C(C)=O)c2)c1
-5% | Cc1nn(C)c(C)c1S(=O)(=O)N(CC(=O)N1CCc2ccccc2C1)c1ccc(C(C)C)cc1
-8% | O=C(N/N=C/c1ccc(F)cc1)c1ccc(Br)cc1
3% | CCOC(=O)/C=c1\s/c(=C\c2ccccc2C)c(=O)n1CC(=O)NCc1ccc2c(c1)OCO2
-23% | O=C(N/C=N/OCc1ccc(Cl)cc1Cl)NOCc1ncc(C(F)(F)F)cc1Cl
0% | OC(COc1ccc(OCC(O)CN2CCCCCC2)cc1)CN1CCCCCC1 (stereo not drawn)

Reformatted: two of the compounds above
SMILES: O=C(N/N=C/c1ccc(F)cc1)c1ccc(Br)cc1
  HPGD inh: -8%
SMILES: CCOC(=O)/C=c1\s/c(=C\c2ccccc2C)c(=O)n1CC(=O)NCc1ccc2c(c1)OCO2
  HPGD inh: 3%

More compounds:
HPGD inh | smiles
-15% | CC(OC(=O)c1ccc(F)cc1)C(=O)Nc1nc(-c2cccc([N+](=O)[O-])c2)cs1 (stereo not drawn)
-15% | CCCn1nnc(NC(=O)COc2ccccc2Cl)n1
-10% | O=C1NC(c2ccc(Br)cc2)=N/C1=C/c1ccco1
? | CN(C)c1ccnc2sc3c(=O)n(-c4ccccc4)cnc3c12
-2% | O=C(O)/C(=C/c1cccnc1)NC(=O)c1ccccc1
-11% | CS(=O)(=O)N1CCN(C(=O)c2csc3ccccc23)CC1
-9% | CCOC(=O)c1cc(-c2ccc(N3CCOCC3)cc2)nn1-c1ccccc1
? | COc1ccc(CCn2c(N)c(C#N)c3nc4ccccc4nc32)cc1OC
-16% | C=CCc1c(C)nc(-c2ccccc2)nc1Nc1ccc(O)cc1
-25% | CN1CCN(S(=O)(=O)c2cccc(C(=O)Nc3sc4c(c3C(N)=O)CCCC4)c2)CC1
-10% | CCCS(=O)(=O)N1CCN(C(=O)c2cccc(OC)c2)CC1
-9% | CC12CCCc3c(O)cc(=O)n(c31)-c1ccccc12 (stereo not drawn)
-4% | Cc1ccc(NC(=O)CCN2CCc3ccccc3C2)cc1
-4% | CCC(=O)N1CCc2cc(S(=O)(=O)CCC(=O)NCCc3ccc(OC)c(OC)c3)ccc21
0% | C=CCN1c2ccccc2[C@]23C[C@@H](C(=O)OC)N(C(=O)CC(C)C)C2=NC(C(=O)OC)=C(C(=O)OC)[C@H]13
-5% | O=c1ccn(-c2cccc(C(F)(F)F)c2)nc1-c1ccn(-c2ccccc2)n1
4% | CCN(CC)S(=O)(=O)c1cccc(S(=O)(=O)c2cccc(S(=O)(=O)N(CC)CC)c2)c1
-1% | COc1ccc(CC(=O)N2CCC(Nc3nc4ccccc4n3Cc3ccc(F)cc3)CC2)cc1
-7% | CCOC(=O)C(C)Sc1nc2c(cnn2-c2ccc(C)cc2)c(=O)[nH]1 (stereo not drawn)
-8% | COc1ccc(CCC(=O)NCCCNC(=O)CCc2ccc(OC)cc2)cc1
-1% | CCn1c(SCc2ccc(C#N)cc2)nnc1-c1cccc(Cl)c1
? | O=C1CC(c2ccccc2)CC(=O)C1Sc1ccc(Cl)cc1 (stereo not drawn)
-3% | NC(=S)Nc1nc2ccccc2[nH]c1=O
? | CCn1cc(C(=O)Nc2ccccc2C(=O)OC)c(=O)c2ccc(C)nc21
-5% | Cc1cc(C)c(C(=O)c2ccc(C(=O)NC(C)(C)C)cc2)c(C)c1
-8% | O=C(CC1CCCCC1)Nc1c2c(nn1-c1ccc(F)cc1)CS(=O)(=O)C2
-2% | O=C(NCc1ccccc1)C1CCN(C(=O)NCc2ccccc2)CC1
-14% | CCc1ccc(C(=O)/C=C2\Sc3ccccc3NC2=O)cc1
3% | Cc1ccccc1CNC1CCCCC1
-11% | Cc1ccc(S(=O)(=O)Cc2cccc(C(=O)N3CCOCC3)c2)cc1
-16% | Cc1cccnc1NC1OC(=O)c2ccccc21 (stereo not drawn)
-3% | CN1C(=O)/C(=C2\SC(=S)N(CC3CCCO3)C2=O)c2ccccc21 (stereo not drawn)
-9% | CCOCCCNC(=O)CCNC(=O)c1cc(OC)c(OC)c(OC)c1
-15% | COc1ccc(C(=O)CC(=O)O)c2c1C=CC(C)(C)O2
-21% | CCOC(=O)c1c(C)nc2sc3c(=O)n(-c4ccc(C(C)=O)cc4)cnc3c2c1-c1ccc(Cl)cc1
-22% | COc1ccc(C/C(N)=N/OC(=O)Cc2ccccc2)cc1OC
-7% | O=[N+]([O-])c1ccc2c(c1)S(=O)c1ccccc1-2 (stereo not drawn)
? | Cc1cc(=O)oc2c3c4c(cc12)OCCN4CCC3
-13% | O=C(O)C1C2C=CC(C2)C1C(=O)NCc1cccnc1 (stereo not drawn)
-14% | Cc1cc2c(c(SCC(=O)N(C)c3ccccc3)n1)C(=O)OC2
-11% | COc1ccc(CCNC(=O)C(=O)Nc2nccs2)cc1OC
-8% | CCc1cccc(CC)c1NC(=O)COC(=O)c1ccccc1-c1nc2ccccc2s1
-1% | CCCCNC(=O)Cn1c(=O)oc2cc(S(=O)(=O)N3CC(C)CC(C)C3)ccc21 (stereo not drawn)
-3% | COc1ccccc1C1=NOC(COC(=O)c2ccc3ccccc3n2)C1 (stereo not drawn)
-15% | O=C(Cc1ccc(-n2c(=O)[nH]c3ccccc3c2=O)cc1)N1CCN(c2cccc(Cl)c2)CC1
-10% | Cc1ccc(Oc2nc(CN3CCOCC3)nc3sc4c(c23)CCC(C)C4)cc1 (stereo not drawn)
-12% | COc1ccc(N(CC(=O)Nc2cc(C)ccc2OC)S(=O)(=O)c2c(C)noc2C)cc1
-17% | CCOC(=O)NC(NCc1cccc(C(F)(F)F)c1)(C(F)(F)F)C(F)(F)F
-7% | CC(C)C1=NN(C(=O)c2ccccc2)C(O)(C(C)(C)C)C1 (stereo not drawn)
-6% | Cn1c(C(C(=O)NCC2CCCO2)N(C(=O)Cn2nnc3ccccc32)C2CCCCC2)nc2ccccc21 (stereo not drawn)
-11% | COC(=O)/C(=C\Nc1ccccc1N)c1ncc(C(F)(F)F)cc1Cl
4µM* | Cn1c(=S)c2[nH]c(SCc3cccnc3)nc2n(C)c1=O
? | Cn1c(N)c(C(=O)NCc2ccccc2)sc1=S
-8% | Cc1ccc2[nH]c(=O)c(CN(CC3CCCO3)C(=S)NCc3ccco3)cc2c1 (stereo not drawn)
? | c1ccc2sc(-c3ccc4c(c3)OCO4)nc2c1
-16% | COC(=O)C1(C)C=C(Nc2ccc(OC)cc2)C(=O)N1c1ccc(OC)cc1 (stereo not drawn)
-10% | CC1S/C(=N/N=C2CCCCC2)NC1=O (stereo not drawn)
? | Clc1ccc(CN=C2Nc3ccccc3CS2)cc1
-10% | Cc1ccc(-c2c[n+](CC(=O)Nc3nc(-c4ccc(F)cc4)cs3)c3n2CCC3)cc1
? | CCC(C)NC(=O)c1cc2cc3ccc(OC)cc3nc2s1 (stereo not drawn)

Structural class, those above with a tert-butyl group (2)
HPGD inh | smiles
-5% | Cc1cc(C)c(C(=O)c2ccc(C(=O)NC(C)(C)C)cc2)c(C)c1
-7% | CC(C)C1=NN(C(=O)c2ccccc2)C(O)(C(C)(C)C)C1 (stereo not drawn)

Later entries
HPGD inh | smiles
-7% | CSCCC(NC(=O)C1CC1)c1nc2ccccc2[nH]1 (stereo not drawn)
-15% | CCNC(=O)c1ccc2c(c1)C1C3CCC(C3)C1C(c1ccccc1)N2 (stereo not drawn)
-10% | COC(=O)CSc1nnc(-c2cccc(NC(=O)c3ccc(C)cc3)c2)n1C
-1% | CC(=O)CC1(C)OC(N)=C(C#N)C1(C#N)C#N (stereo not drawn)
-13% | Cc1cc(C)nc(-n2cc(C(=O)c3cc(F)ccc3O)cn2)n1
0%&-4%&-4% | CCN1CCC[C@H]1CNC(=O)c1cc(S(N)(=O)=O)ccc1OC
0% | N[C@@H]1[C@@H]2[C@@H]3C[C@H]4N(CC[C@@]14C(=O)C(=O)O)CC3=CCO[C@@H]2CC(=O)O
? | Cc1ccc(-n2c(-c3ccco3)nc3nc4ccccc4nc32)cc1
-15% | O=S(=O)(c1cnc(Cl)c(Br)c1)N1CCCCCC1
-7% | CCN1CC(C)C(O)(c2ccccc2)CC1C (stereo not drawn)
-8% | c1ccc2c(c1)OC(CCCN1CCCCC1)c1ccccc1S2 (stereo not drawn)
1% | Cc1c(C(=O)NC2CCCc3ccccc32)oc2ccc(S(=O)(=O)N3CCOCC3)cc12 (stereo not drawn)
? | CCSc1nnc(NC(=O)c2cc3c(s2)CCCC3)s1
-7% | O=C(Nc1cc(Oc2ccccc2)cc([N+](=O)[O-])c1)C12CC3CC(C1)CC(n1cnc(Cl)n1)(C3)C2
-13% | Fc1ccc(COc2ccc(Cl)cc2/C=N/Nc2nc(N3CCCC3)nc(N3CCCC3)n2)cc1
-8% | CCNc1ccc(C(=O)OCC(=O)c2cc(C)n(Cc3ccc4c(c3)OCO4)c2C)cc1[N+](=O)[O-]
-2% | COC(=O)[C@H](Cc1ccccc1)NC(=O)NCc1ccccc1OC
-12% | Cc1ccc(C(C(=O)NC2CCCCC2)N(Cc2ccco2)C(=O)C2COc3ccccc3O2)o1 (stereo not drawn)
-4% | O=C(Cn1nc(Cc2cccnc2)c2ccccc2c1=O)NCC1COc2ccccc2O1 (stereo not drawn)
-11% | CC(C)(C)Cc1nnc(NC(=O)c2ccc([N+](=O)[O-])cc2)s1
7.1µM* | O=C(CCCCCN1C(=O)c2ccccc2C1=O)Nc1nccs1
-3% | COc1ccccc1N1CCN(C(CNS(=O)(=O)c2ccccc2)c2cccnc2)CC1 (stereo not drawn)
5% | COC(=O)CN1C(=O)C(O)(CC(=O)c2ccc(C)cc2)c2ccccc21 (stereo not drawn)
-21% | CC1(C)CC(=NOC(=O)c2ccccc2)CC(C)(C)N1
? | CCOc1ccc(-n2c(N)c(C(=O)NCc3ccco3)c3nc4ccccc4nc32)cc1
-26% | Cc1nn(Cc2ccccc2Cl)c2sc(C(=O)OC3CCCC3=O)cc12 (stereo not drawn)
-15% | CN(C)CCCOc1ccc2c(c1)Sc1ccccc1CC2=O
-16% | CCOC(=O)C1CCc2sc(N)c(C#N)c21 (stereo not drawn)
-6% | CN(C)CC(=O)Nc1nc(-c2ccccc2)cs1
-12% | O=C(NCc1ccc(Cl)cc1Cl)c1ccc2nc[nH]c2c1
-12% | CCN(CCCNC(=O)CCCN1C(=O)COc2ccc(C)cc21)c1cccc(C)c1
-11% | CN(C)S(=O)(=O)c1ccc(N2CCCC2)c(C(=O)Nc2ccccc2N2CCOCC2)c1

Some of these compounds in order of their number in HPGD inh, smallest number first:
HPGD inh | smiles
4µM* | Cn1c(=S)c2[nH]c(SCc3cccnc3)nc2n(C)c1=O
4.5µM* | Cc1cc([N+](=O)[O-])nn1CCCC(=O)Nc1sc2c(c1C(N)=O)CCCC2
10µM* | CN(c1ccc(C(=O)N2CCCCC2)cc1)S(C)(=O)=O
